Mtb bLac sens: beta-lactam sensitization of Mtb H37Rv; M. tuberculosis H37Rv growth with meropenem, percent inhibition; hits of this screen are not shown here; inhibition, % at 25 µM; 330,000 tested, 0.27% active; AID 434955;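 active = about 74% or more and at least 40 points above the plate without the antibiotic, then above 30% in a dose series; inconclusive = first-round hits that could not be retested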;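 also: growth measured after seven days incubation then overnight dye step; 0% = bacteria only wells and 100% = bacteria with antibiotic; twin plates without the antibiotic show which effects depend on it; some results filed as inactive read as strong as hits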
Arbovirus anti: antivirals against arbovirus infection; arbovirus infection cell-based antiviral screen; inhibition, % at 10 µM; 200,000 tested, 0.37% active; AID 1251;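 active = inhibition from about 30%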;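 also: bluetongue infection of BSR cells; cell survival read as ATP light after 72 h; 0% = infected wells without compound and 100% = uninfected wells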
Mtb growth: M. tuberculosis H37Rv growth inhibitors, H37Rv strain (AID 1626); M. tuberculosis H37Rv growth inhibition; higher % means a stronger effect; inhibition, % at 10 µM, or IC50 in µM where a hit was titrated; 220,000 tested, 0.95% active;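 active = confirmed in a dose series; inconclusive = inhibition above 80% but not taken into the dose series; inactive = below 80% or under 30% at every dose of the series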;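 also: bacteria incubated seven days before Alamar blue readout; 0% = bacteria only wells and 100% = bacteria with antibiotic wells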
YopH PTP inh: inhibitors of Yersinia enterocolitica YopH tyrosine phosphatase; fluorescence Ex485/Em525; inhibition, %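 (about 10 µM by stock and volumes)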; 140,000 tested, 0.16% active;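 active = inhibition of 50% or more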;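 also: controls were vehicle for no effect and minimum signal wells for full effect; inactives centre near -20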
RecA splice inh: Mtb RecA intein splicing inhibition; 290,000 tested, 0.75% active; P9WHJ3; cell-free RecA intein splicing, fluorescence; inhibition, %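 (about 9 µM by stock and volumes)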; in the data active = inhibition above about 30%; inconclusive = no clear call, values can overlap the other calls;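 also: 0% = vehicle wells and 100% = reference inhibitor control wells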
Target sequence (P9WHJ3 whole entry, looked up, canonical isoform): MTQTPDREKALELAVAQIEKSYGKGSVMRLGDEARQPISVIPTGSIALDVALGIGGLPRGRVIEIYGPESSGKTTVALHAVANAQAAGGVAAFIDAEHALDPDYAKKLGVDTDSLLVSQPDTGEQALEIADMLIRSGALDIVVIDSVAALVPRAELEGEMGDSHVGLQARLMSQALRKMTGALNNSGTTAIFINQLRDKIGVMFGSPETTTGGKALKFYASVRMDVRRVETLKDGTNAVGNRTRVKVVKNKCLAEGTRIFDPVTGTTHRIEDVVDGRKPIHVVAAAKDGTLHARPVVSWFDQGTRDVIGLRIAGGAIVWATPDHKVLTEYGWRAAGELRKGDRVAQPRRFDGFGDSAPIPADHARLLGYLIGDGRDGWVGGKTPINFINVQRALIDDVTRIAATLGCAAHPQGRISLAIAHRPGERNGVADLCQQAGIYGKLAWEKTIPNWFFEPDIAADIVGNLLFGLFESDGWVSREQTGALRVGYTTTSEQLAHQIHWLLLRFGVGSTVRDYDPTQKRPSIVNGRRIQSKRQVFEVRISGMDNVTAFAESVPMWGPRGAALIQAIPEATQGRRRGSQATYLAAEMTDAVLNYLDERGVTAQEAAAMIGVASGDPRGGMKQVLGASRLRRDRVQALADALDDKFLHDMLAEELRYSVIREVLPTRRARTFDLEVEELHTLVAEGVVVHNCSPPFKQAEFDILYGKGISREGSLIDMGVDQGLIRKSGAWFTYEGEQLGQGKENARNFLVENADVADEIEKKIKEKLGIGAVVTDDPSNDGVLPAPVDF
Arbovirus anti repeat: also measured in Arbovirus anti; calls as there; inhibition, %; measured here: 10K subset replicate screen; many hits read low in the repeat;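 first of two repeat runs on a subset; 0% = infected and 100% = uninfected wells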
* marks the source's active call; other numbers are inactive results; ? = inconclusive; . = no result given; & = joins results of further samples. Only part of the results is shown; rates above refer to the full screens.

A first look, 4 compounds:
SMILES	Mtb bLac sens	Arbovirus anti	Mtb growth	YopH PTP inh	RecA splice inh	others
Cc1cccc(C)c1NC(=O)COC(=O)CSc1nnc(N)s1	-1	-6	-7%	-24	-2.6
CC(=O)C(Cc1ccccc1)NC(=O)CN1CCc2ccccc2C1 (stereo not drawn)	-1	-1	1%	.	1.9
O=C(c1ccccc1F)N(Cc1nc2ccccc2c(=O)[nH]1)C1CCCC1	1	2	-2%	.	5.2
O=C(NC1CCCCC1NC(=O)c1cccs1)c1cccs1 (stereo not drawn)	1	2	1%	-45	-0.4

The whole of this part, from the first entry:
SMILES	Mtb bLac sens	Arbovirus anti	Mtb growth	YopH PTP inh	RecA splice inh	others
Cc1cccc(C)c1NC(=O)COC(=O)CSc1nnc(N)s1	-1	-6	-7%	-24	-2.6
CC(=O)C(Cc1ccccc1)NC(=O)CN1CCc2ccccc2C1 (stereo not drawn)	-1	-1	1%	.	1.9
O=C(c1ccccc1F)N(Cc1nc2ccccc2c(=O)[nH]1)C1CCCC1	1	2	-2%	.	5.2
O=C(NC1CCCCC1NC(=O)c1cccs1)c1cccs1 (stereo not drawn)	1	2	1%	-45	-0.4
Cc1ccc(S(=O)(=O)c2nc(S(C)(=O)=O)sc2N2CCCC2)cc1	0	.	.	.	-4.3
Cc1ccccc1N1C(=O)C2ON(c3ccccc3)C(c3cccnc3)C2C1=O (stereo not drawn)	9	5	-10%	-42	0.7
CC(c1ccco1)N(C(=O)c1cc(Cl)cc(Cl)c1)c1ccccn1 (stereo not drawn)	7	.	.	.	6.2
CCOC(=O)CC(=O)Nc1nnc(C(C)C)s1	-2	-1	-11%	-10	0.4
CCOc1ccc(OCC)c(NC(=O)CSc2nnnn2CC)c1	-7	6	-8%	1	0.9
CCN(C(=O)COC(=O)c1ccccc1NCCO)c1cccc2ccccc12	-6	.	.	.	-2.8
CCOCCCNC(=S)N(Cc1ccccc1)Cc1nc2ccccc2c(=O)[nH]1	2	8	2%	-33	-2.2
CCC(c1nnc(SCC(=O)NCCc2ccc(Cl)cc2Cl)o1)N(C)C (stereo not drawn)	-5	2	10%	-28	0.8
O=C(c1ccccc1)N1CCN(C(=O)c2cc3nc(-c4ccccc4)cc(C(F)(F)F)n3n2)CC1	48	.	.	.	1.2
COc1ccccc1NC(=O)Nc1ccccc1C#N	-7	.	.	.	2.4
COc1ccc(OC)c(CN2CCC(Cc3ccccc3)CC2)c1	0	.	.	.	0.0
CCN(CC)CCC(c1ccc(N(C)C)cc1)c1c(OC)cc(OC)c2ccc(=O)oc12 (stereo not drawn)	-4	.	-1%	.	0.9
Cn1c(CNS(=O)(=O)c2ccc(Br)cc2)n[nH]c1=S	0	7	-6%	-41	.
CC(C)c1cccc(C(C)C)c1NC(=O)COC(=O)c1ccc2c(c1)S(=O)(=O)c1ccccc1C2=O	-2	-3	-1%	-7	-8.0
Oc1cccc(Nc2nc(NCC3CCCO3)c3ccccc3n2)c1 (stereo not drawn)	12	3	6%	-17	5.4
Cc1ccc(C(=O)COC(=O)C2CC(=O)N(c3nc(-c4ccccc4)cs3)C2)cc1C (stereo not drawn)	95	-2	-7%	-23	1.2
COc1ccc(NC(=O)c2cccc(-n3c(C)ccc3C)c2)c(OC)c1	-2	-10	-11%	-26	-2.0
CN1CCN(S(=O)(=O)c2ccc(N3CCN(S(=O)(=O)c4cccs4)CC3)nc2)CC1	-6	-2	0%	12	.
O=C(COC(=O)c1cc(-c2ccco2)nc2ccccc12)NCc1ccc2c(c1)OCO2	-11	0	.	-30	-0.5
O=C(COC(=O)Cc1ccc(Br)cc1)NC1CCCCCC1	0	3	2%	.	1.6
Cc1cnc(C(=O)OCC(=O)Nc2sc3c(c2C#N)CCC3)cn1	-12	.	.	.	2.8
O=C(CSc1nnc(Cc2cccs2)n1C1CCCCC1)N1CCCc2ccccc21	-10	19	10%	-6	4.9
N#CC1=C(N)N(c2ccc(Oc3ccccc3)cc2)C(=O)C1	89	0	79%	-28	5.1
COC(=O)c1cc(S(=O)(=O)N2CCN(c3ccccc3F)CC2)c[nH]1	-5	.	.	.	-0.3
O=C(N/C(=C/c1ccc(Cl)cc1)C(=O)N1CCCC1)c1ccccc1	-3	.	-1%	.	7.6
CCOc1ccc(N2C(=O)CSC23CCCCC3)cc1	2	4	2%	-14	-0.3
O=C(CN1C(=O)C2CC=CCC2C1=O)Nc1ccccc1N1CCCC1 (stereo not drawn)	-4	.	.	.	-1.5
Cc1cc(F)ccc1S(=O)(=O)N1CCCOC1CNC(=O)C(=O)NC1CCCC1 (stereo not drawn)	-20	.	.	.	1.6
CCC(=O)NCCNc1ccc([N+](=O)[O-])cn1	3	-7	-3%	-20	0.8
CC(C)(C)S(=O)c1cccs1 (stereo not drawn)	7	-2	10%	-33	-1.9
CC1(C)CC(=O)c2cnc(N3CCN(c4ccccc4)CC3)nc2C1	-7	-1	4%	-44	5.8
Cc1c(-c2ccccc2)cn2c1-c1ccc(C)n1CC2	1	3	-9%	-19	8.6
Cc1ccc(CNC(=O)Nc2ccc3c(c2)N(C)C(=O)CS3)cc1	-6	1	0%	.	-1.2
CCN1CNC(=S)N(c2ccccc2OC)C1	1	-10	-3%	-18	-1.2
O=C1COc2ccc(S(=O)(=O)N3CCCCC3)cc2N1	5	.	.	.	-2.1
Cc1onc(-c2ccccc2)c1C(=O)n1nnc2ccccc21	1	0	-4%	-32	31*
CCN1/C(=C/c2ccc3ccc(C)cc3[n+]2CC)Sc2ccccc21	100	-30	?	-18	.
C=C1CCC2C(C)(C)[C@H](O)CC[C@@]2(C)[C@@H]1COc1cc(=O)oc2ccccc12 (stereo partly drawn)	3	-40	2%	-3	15
CCCc1cc(=O)oc2c(C)c(OC(C)C(=O)NCC(O)c3ccccc3)ccc12 (stereo not drawn)	10	.	.	.	1.5
CCCOC(=O)c1ccc(NC(=O)CN(C)Cc2cccs2)cc1	86	.	.	.	3.5
O=C(O)COc1ccccc1/C=N/NC(=O)CSc1nc2ccccc2n1Cc1ccccc1Cl	-11	.	-12%	.	1.6
Brc1cc2c(cc1/C=N/Nc1nc3ccccc3s1)OCO2	85	-8	60%	-30	4.1
COc1ccc(C(=O)C(OC(=O)c2ccccc2)c2ccccc2)cc1 (stereo not drawn)	-1	-6	.	8	11
CCn1c(CN2CCOCC2)nnc1SCC(=O)Nc1ccc(C)cc1	1	.	.	.	-0.1
CC(Oc1ccc(C(=O)c2ccccc2)cc1)C(=O)N1CCOCC1 (stereo not drawn)	-10	.	.	.	-0.9
CCCC1=Nc2cc(C(=O)N3CCCC3)ccc2Sc2ccc(C)cc21	-8	.	.	.	10
COc1ccc(NC(=O)CSc2nnc(N)s2)cc1	-10	0	-9%	-4	2.3
Cc1ccc(CNC(=O)Cn2cncn2)cc1	-16	3	-7%	-114	0.6
CCSCc1nnc(SCC(=O)Nc2cccc(SC)c2)n1C	96	0	43µM*	-29	-0.2
COC(=O)[C@H]1C[C@H]1[C@@H](NC(=O)c1ccc[nH]1)c1ccccc1	-9	.	-3%	.	-2.0
Cc1nc(-c2ccccc2)nc2[nH]c(C(C)C)cc(=O)c12	-11	-4	-4%	8	0.5
CCOc1ccc(C(=O)NCC(=O)Nc2ccc(N3CCOCC3)cc2)cc1OCC	3	0	-4%	.	-3.2
Cc1c(C(=O)N2CCCC2)oc2c1-c1nn(CC(=O)NCCCOC(C)C)cc1CC2	3	.	.	.	-4.1
CCOCCCNC(=O)C1(O)c2ccccc2NC(=O)N1c1ccc(C)c(C)c1 (stereo not drawn)	3	.	.	.	0.0
Nc1c(C(=O)Nc2ccc3c(c2)OCCO3)nnn1Cc1ccc(F)cc1	-4	.	.	.	-1.0
O=C(CS(=O)(=O)c1cn(CC(=O)N2CCCC2)c2ccccc12)Nc1ccccc1	0	.	.	.	-2.9

Additional results:
SMILES	Mtb bLac sens	Arbovirus anti	Mtb growth	YopH PTP inh	RecA splice inh	others
O=C(CN1C(=O)C2C3CCC(C3)C2C1=O)OCC(=O)c1ccccc1 (stereo not drawn)	-13	.	.	.	-2.5
COc1ccc(C(=O)Cc2nnc(C)s2)c(OC)c1	-1	-1	-1%	-3	1.3
Nc1nccc(/C=C/c2c(F)cccc2Cl)n1	5	6	0%	.	2.3
Cc1cc(NC(=O)CN2C(=O)NC3(CCC(C)CC3)C2=O)no1 (stereo not drawn)	-6	2	0%	-10	-7.4
COc1cc(/C=C2\C(C)=C(C#N)c3nc(N)c(C#N)c(C)c32)ccc1OCC(=O)O	0	.	-5%	.	21
CCOc1ccc(C(=O)Cn2cnnc2C#N)cc1	3	.	.	.	8.7
Cc1c(/C(O)=C2/C(=O)C(=O)N(CCN3CCOCC3)C2c2ccccn2)cnn1-c1ccccc1 (stereo not drawn)	1	2	-6%	.	13
COc1ccc(-c2nnc(NC(=O)C(C)C)o2)cc1	8	1	28%	-53	-0.3	Arbovirus anti repeat=0
c1ccc(C2Nc3cccc4cccc(c34)N2)cc1	6	.	.	.	11
Cc1ccc(CNC(=O)Cn2cnc(S(=O)(=O)N3CCCCC3)c2)o1	-2	.	.	.	-1.6
O=C(N1CCCC1)C12CC3CC(C1)CC(C(=O)N1CCCC1)(C3)C2	-12	3	0%	.	2.0
COc1ccc(C2c3ccsc3CCN2C(C)=O)cc1 (stereo not drawn)	0	.	-11%	.	-0.8

An excerpt from above in order of molecular weight, largest number first:
SMILES	Mtb bLac sens	Arbovirus anti	Mtb growth	YopH PTP inh	RecA splice inh	others
CCOc1ccc(C(=O)Cn2cnnc2C#N)cc1	3	.	.	.	8.7
Nc1nccc(/C=C/c2c(F)cccc2Cl)n1	5	6	0%	.	2.3
c1ccc(C2Nc3cccc4cccc(c34)N2)cc1	6	.	.	.	11

New compounds follow:
SMILES	Mtb bLac sens	Arbovirus anti	Mtb growth	YopH PTP inh	RecA splice inh	others
O=C(CCNC(=O)c1ccccc1Cl)NCC1CCCO1 (stereo not drawn)	-14	.	.	.	5.8
S=c1[nH]nc(CSc2nc3ccccc3s2)n1Cc1ccccc1	?	5	0%	-11	2.9
Cc1c(C(=O)Nc2ccc(F)cc2)sc2ncn(CC(=O)N3CCCCC3)c(=O)c12	-1	.	.	.	2.0
CC(=O)c1cccc(N(C(=O)c2ccco2)C(C(=O)NC2CCCC2)c2ccc(N3CCOCC3)cc2)c1 (stereo not drawn)	5	-2	-6%	.	-0.8
O=C(CCCn1c(=O)oc2ccccc21)N1CCc2ccccc2C1	-4	-5	-1%	-13	4.9	Arbovirus anti repeat=2
CCOC(=O)c1ccc(N2C(=O)C(O)=C(C(C)=O)C2c2ccc(O)c(OC)c2)cc1 (stereo not drawn)	44	5	6%	-23	-0.1
Cc1cccc(C)c1NC(=O)CN(c1ccccn1)S(=O)(=O)c1ccc(F)cc1	7	11	.	.	-2.2
Cc1cc(C)nc(/N=C2\NC(=O)CC(C(=O)O)N2CCc2c[nH]c3ccccc23)n1 (stereo not drawn)	-5	-2	-6%	-41	-0.3	Arbovirus anti repeat=-1
CC1(C)CC(CC(=O)Nc2ccc([N+](=O)[O-])cc2)C(=O)O1 (stereo not drawn)	-1	5	0%	-17	-1.4
O=C(CNC(=O)c1ccco1)OCc1ccc(C(=O)c2ccccc2)cc1	4	-2	4%	.	1.2
COC(=O)c1ccc(NC(=O)CCn2cccc2)cc1	5	2	-4%	-5	-0.6
Cc1ccc(S(=O)(=O)C2(C(=O)N3CCCC(C)C3)CC2)cc1 (stereo not drawn)	1	-2	-6%	-4	-0.5
CN1C/C(=C/c2cccs2)C(=O)/C(=C\c2cccs2)C1	4	.	.	.	-4.4
O=C(OCCN1C(=O)c2cccc3c(N4CCOCC4)ccc(c23)C1=O)c1cccc(Cl)c1	-2	-4	9%	-41	-110
COc1ccc(F)cc1C(=O)C1CCCN(Cc2c(C)n(C)n(-c3ccccc3)c2=O)C1 (stereo not drawn)	-4	-14	-15%	.	-1.9
Cc1cc(Br)c2[nH]cc(CCNC(=O)c3ccco3)c2c1	9	.	.	.	4.1
COc1ccc(C2(c3ccc(OC)cc3)NC(=O)N(CC(=O)Nc3ccc(C(=O)N(C)C)cc3)C2=O)cc1	5	.	.	.	-2.3
COc1cccc(C(=O)c2cn(CC(=O)NCc3ccco3)c3nc(C)ccc3c2=O)c1	-9	.	.	.	-2.8
Cc1ncc(C[n+]2csc(CCO)c2C)c(N)n1	-1&-8	.	.	.	-2.0&-1.0
CCCN1CCN(C(=O)C(C)n2nc(C)c3sc4ccccc4c3c2=O)CC1 (stereo not drawn)	5	.	.	.	1.3
CC(C)[C@@H]1COC(c2cccc(C3=N[C@H](C(C)C)CO3)n2)=N1	-7	.	.	.	-0.5
CCOc1ccc(N(C(=O)c2snc(C(N)=O)c2N)C(CC)C(=O)NC2CCCC2)cc1 (stereo not drawn)	1	.	.	.	-5.0

Screening results from PubChem BioAssay.
